MLL AF4-AF9 inh – blocks AF4 peptide binding to human AF9. P42568. AlphaScreen, biotin-AF4 peptide binding to FLAG-AF9. inhibition, % at 10 µM. actives 0.47% (n = 350,000). AID 651704;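 active = every replicate reaching a set inhibition limit, whatever the replicate mean, cut at about 25% in these data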;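 also: 0% = plate neutral control median and 100% = total signal loss; the record names both 10 and 1 µM as test concentration; the first replicate is given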
Target sequence (P42568 whole entry, looked up): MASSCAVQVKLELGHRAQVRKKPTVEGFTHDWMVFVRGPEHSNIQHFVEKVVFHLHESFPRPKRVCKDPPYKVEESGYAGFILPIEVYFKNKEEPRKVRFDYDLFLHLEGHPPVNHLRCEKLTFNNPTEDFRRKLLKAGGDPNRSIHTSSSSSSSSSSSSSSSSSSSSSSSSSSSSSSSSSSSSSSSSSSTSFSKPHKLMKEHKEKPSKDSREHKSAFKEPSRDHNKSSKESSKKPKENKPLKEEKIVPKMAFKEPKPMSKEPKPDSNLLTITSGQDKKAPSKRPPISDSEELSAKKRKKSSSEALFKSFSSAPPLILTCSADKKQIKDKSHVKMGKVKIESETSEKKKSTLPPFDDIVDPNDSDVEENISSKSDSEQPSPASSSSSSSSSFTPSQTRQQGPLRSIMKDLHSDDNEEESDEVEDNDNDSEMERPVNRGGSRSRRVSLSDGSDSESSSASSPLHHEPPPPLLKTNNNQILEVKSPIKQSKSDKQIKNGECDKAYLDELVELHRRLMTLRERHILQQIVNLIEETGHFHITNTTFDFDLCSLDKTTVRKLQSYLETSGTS
FGF22 binding – FGF22 (human) thermal shift binding | Q9HCT0 | recombinant FGF22 thermal shift, SYPRO orange fluorescence; percent of sucrose octasulfate shift, DMSO zero | calls only at 9.99 µM | actives 1.5% (n = 340,000);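 active = melting point raised past a set limit in the mean and every replicate; three in four hits are not shown here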
Target sequence (Q9HCT0 whole entry, looked up): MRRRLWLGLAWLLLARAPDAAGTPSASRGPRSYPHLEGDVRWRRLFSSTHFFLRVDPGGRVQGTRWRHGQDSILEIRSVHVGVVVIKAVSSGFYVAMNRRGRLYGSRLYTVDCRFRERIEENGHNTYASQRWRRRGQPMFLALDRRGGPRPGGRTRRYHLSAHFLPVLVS
* hit, by the source's call; i = inactive. Some of the compounds tested; the hit share may differ from the screen's.

structure	MLL AF4-AF9 inh	FGF22 binding
C[C@@H]1CN([C@@H](C)CO)C(=O)Cc2cc(NC(=O)Nc3ccc(C(F)(F)F)cc3)ccc2O[C@H]1CN(C)S(=O)(=O)c1cn(C)cn1	2.6	i
O=C(C[C@@H]1CC[C@H]2[C@@H](COC[C@H](O)CN2C(=O)Nc2ccc(C(F)(F)F)cc2)O1)NCC1CCCCC1	0.5	i
COc1cccc(S(=O)(=O)Nc2ccc3c(c2)C(=O)N(C)[C@@H]2CC[C@H](CC(=O)NCC4CCCCC4)O[C@H]2CO3)c1	-2.6	i
COc1ccc2c3c(n(C)c2c1)[C@@H](CO)NCC31CN(C(=O)Nc2ccccc2F)C1	1.9	i
C[C@@H]1CCCCO[C@@H](CN(C)C(=O)c2ccccc2)[C@@H](C)CN([C@@H](C)CO)C(=O)c2cc(NC(=O)Nc3ccccc3)ccc2O1	-1.2	i
C[C@H]1CN([C@@H](C)CO)C(=O)Cc2cc(NC(=O)Nc3ccccc3)ccc2O[C@@H]1CN(C)Cc1ccc(C(=O)O)cc1	-2.0	i
COc1ccc(CN(C)C[C@H]2Oc3ccc(NC(=O)Nc4ccc(C(F)(F)F)cc4)cc3CC(=O)N([C@@H](C)CO)C[C@H]2C)cc1	0.8	i
C[C@@H]1CN([C@H](C)CO)C(=O)Cc2cc(NC(=O)C3CC3)ccc2O[C@H]1CN(C)C(=O)Nc1ccc(F)cc1	-2.2	i
COCC(=O)Nc1ccc2c(c1)C(=O)N(C)C[C@H](OC)[C@H](C)CN(Cc1cncnc1)[C@@H](C)CO2	-1.7	i
O=C(C[C@H]1CC[C@H](NC(=O)Nc2ccccc2)[C@@H](CO)O1)NCc1ccccn1	0.9	i
O=C(C[C@@H]1CC[C@H]2[C@@H](COC[C@@H](O)CN2Cc2ccccc2F)O1)NCc1ccccc1F	-1.4	i
C[C@@H]1CN([C@H](C)CO)C(=O)c2cc(NS(C)(=O)=O)ccc2O[C@@H](C)CCCCO[C@@H]1CN(C)C(=O)c1ccncc1	-1.2	i
C[C@H](CO)N1C[C@H](C)[C@@H](CN(C)C(=O)c2ccccn2)Oc2cc(C#Cc3ccccc3)ccc2S1(=O)=O	-1.5	i
C[C@@H]1CCCCO[C@H](CN(C)C(=O)Nc2ccc(F)cc2)[C@H](C)CN([C@H](C)CO)C(=O)c2cc(NC(=O)Cc3ccccc3)ccc2O1	-1.3	i
Cc1noc(C)c1NC(=O)N(C)C[C@H]1Oc2ccc(NC(=O)Nc3ccc(F)cc3)cc2CC(=O)N([C@@H](C)CO)C[C@H]1C	-3.3	i
C[C@@H]1CCCCO[C@H](CN(C)S(C)(=O)=O)[C@H](C)CN([C@@H](C)CO)C(=O)c2cc(NS(=O)(=O)c3cccs3)ccc2O1	-1.1	i
Cc1ccc(S(=O)(=O)N(C)C[C@@H]2Oc3ccc(NC(=O)CCCN(C)C)cc3C(=O)N([C@@H](C)CO)C[C@@H]2C)cc1	1.2	i
C[C@@H]1CN([C@@H](C)CO)C(=O)c2cc(NS(=O)(=O)c3ccc(F)cc3)ccc2O[C@H]1CN(C)Cc1ccc(C(=O)O)cc1	0.5	i
O=C(CC(F)(F)F)N1C[C@@H]2[C@H](c3ccccc31)[C@H](CO)N2C(=O)C1CC1	-2.0	i
C[C@@H]1CN([C@H](C)CO)C(=O)CCCn2nncc2CO[C@H]1CN(C)C(=O)Nc1cccc(C(F)(F)F)c1	-1.1	i
O=C(NCC[C@H]1CC[C@@H](NC(=O)C2CCCC2)[C@@H](CO)O1)c1cc(Cl)cc(Cl)c1	0.2	i
O=C(Nc1ccc(F)cc1)N1[C@@H]2CNc3ccccc3[C@@H]2[C@@H]1CO	-2.6	i
C[C@H]1CN([C@@H](C)CO)C(=O)Cc2cc(NC(=O)Nc3ccc(F)cc3)ccc2O[C@@H]1CN(C)Cc1ccncc1	1.1	i
COCCNC(=O)C[C@@H]1CC[C@@H]2[C@H](COC[C@@H](O)CN2S(=O)(=O)c2ccccc2C)O1	-1.3	i
CCCNC(=O)Nc1ccc2c(c1)OC[C@@H](C)N(Cc1ccccc1)C[C@H](C)[C@H](OC)CN(C)C2=O	2.7	i
COc1ccc2c3c([nH]c2c1)[C@@H](CO)N(Cc1nccs1)CC31CCN(C(=O)C2CCCC2)CC1	2.6	i
Cn1cnc(S(=O)(=O)N2CCCCN3[C@H](CO)[C@H](c4ccc(-c5ccccc5F)cc4)[C@H]3C2)c1	3.4	i
CC(=O)NC[C@H]1[C@H](c2ccc(-c3ccccc3)cc2)[C@H](CO)N1C(=O)C1CCC1	3.2	i
COCCNC(=O)C[C@H]1CC[C@H]2[C@@H](COc3ccc(NC(=O)c4cc(C)on4)cc3C(=O)N2C)O1	-1.8	i
COc1ccc(S(=O)(=O)Nc2ccc3c(c2)C(=O)N([C@H](C)CO)C[C@@H](C)[C@H](CN(C)C)OCCCC[C@H](C)O3)cc1	3.1	i
O=C(C[C@@H]1C[C@@H]2c3cc(NC(=O)c4cccnc4)ccc3O[C@@H]2[C@H](CO)O1)NC1CCCCC1	-3.0	i
O=C(N[C@@H]1CC[C@H](CC(=O)N2CCN(c3ccccc3)CC2)O[C@H]1CO)c1ccccc1	2.0	i
C[C@@H]1CN([C@@H](C)CO)C(=O)c2cc(NC(=O)C3CCCCC3)ccc2O[C@@H](C)CCCCO[C@@H]1CN(C)C(=O)CCC(F)(F)F	2.2	i
COc1ccccc1NC(=O)N1C[C@H]2[C@@H](c3ccccc31)[C@@H](CO)N2Cc1ccccc1F	2.1	i
O=C(C[C@H]1CC[C@@H](NC(=O)c2ccncc2)[C@@H](CO)O1)NCCc1ccncc1	-0.7	i
CCC(=O)Nc1ccc2c(c1)OC[C@@H](C)N(Cc1ccccc1)C[C@H](C)[C@@H](OC)CN(C)C2=O	-5.6	i
COc1cccc(-c2ccc3c(c2)O[C@@H](CN(C)CC2CC2)[C@@H](C)CN([C@H](C)CO)S3(=O)=O)c1	10	i
COc1cc(CN2CC3(CN(C(=O)Nc4cccc(F)c4)C3)c3c(n(C)c4cc(OC)ccc34)[C@@H]2CO)cc(OC)c1	-2.0	i
CC(C)CC#Cc1ccc([C@@H]2[C@H]3CN(C(=O)Nc4cc(F)ccc4F)CC(=O)N3[C@H]2CO)cc1	0.8	i
O=C(Nc1ccc(Cl)cc1)N[C@@H]1CC[C@@H](CCn2cc(C3(O)CCCC3)nn2)O[C@H]1CO	-16	i
CC(C)NC(=O)Nc1ccc2c(c1)C(=O)N([C@H](C)CO)C[C@H](C)[C@@H](CN(C)CC1CCCCC1)O2	-1.8	i
CN1C(=O)c2cc(NC(=O)c3cscn3)ccc2OC[C@H]2O[C@H](CC(=O)N3CCCCC3)CC[C@H]21	-1.3	i
C[C@@H]1CN([C@H](C)CO)C(=O)c2cccc(NC(=O)C3CCOCC3)c2O[C@@H]1CN(C)S(=O)(=O)c1ccc(F)cc1	-3.3	i
O=C(Cc1ccccn1)NCC[C@@H]1CC[C@@H](NS(=O)(=O)c2ccccc2)[C@@H](CO)O1	-0.5	i
CN(C)C(=O)c1ccc(-c2ccc([C@@H]3[C@@H](CO)N(C(=O)C4CCOCC4)[C@H]3C#N)cc2)cc1	-1.4	i
C[C@H]1CN([C@@H](C)CO)C(=O)Cc2cc(NC(=O)Nc3ccc(F)cc3)ccc2O[C@@H]1CN(C)C(=O)Nc1ccc2c(c1)OCO2	0.5	i
COc1ccc(CN(C)C[C@H]2OCCCC[C@@H](C)Oc3ccc(NC(=O)Nc4ccc5c(c4)OCO5)cc3C(=O)N([C@@H](C)CO)C[C@@H]2C)cc1	28*	i
O=C(C[C@@H]1C=C[C@H](NC(=O)Nc2ccc3c(c2)OCO3)[C@H](CO)O1)NCCCN1CCOCC1	-0.1	i
CO[C@H]1CN(C)C(=O)c2cc(NC(=O)Nc3ccccc3F)ccc2OC[C@@H](C)N(CCC(F)(F)F)C[C@@H]1C	-0.1	i
C[C@H](CO)N1C[C@H](C)[C@@H](CN(C)S(=O)(=O)c2ccccc2)OCCCC[C@H](C)Oc2ccc(NC(=O)CCCN(C)C)cc2C1=O	-3.1	i
Cc1ccc(NC(=O)Nc2ccc3c(c2)C(=O)N(C)[C@H]2CC[C@H](CC(=O)O)O[C@H]2CO3)cc1	-4.9	i
COc1ccccc1-c1cn(CC[C@H]2CC[C@@H](NC(=O)C3CCCCC3)[C@H](CO)O2)nn1	-1.5	i
C[C@@H]1CN([C@H](C)CO)C(=O)c2cc(-c3ccc(C#N)cc3)cnc2O[C@H]1CN(C)Cc1ccncc1	-2.3	i
C[C@H]1CN([C@@H](C)CO)C(=O)c2cc(Br)cnc2O[C@@H]1CN(C)C(=O)c1ccccc1F	-2.8	i
CCCC(=O)Nc1ccc2c(c1)OC[C@H](C)N(C(=O)CN(C)C)C[C@@H](C)[C@H](OC)CN(C)C2=O	-9.7	i
Cc1ccccc1-c1ccc([C@@H]2[C@H](CO)N3C(=O)CN(C(=O)c4ccncc4)C[C@@H]23)cc1	-1.7	i
C[C@@H]1CN([C@H](C)CO)C(=O)c2cccc(NS(=O)(=O)c3ccc(Cl)cc3)c2O[C@@H]1CN(C)S(C)(=O)=O	2.2	i
CN1c2ccc(Br)cc2[C@@H]2[C@@H](CCN2S(=O)(=O)c2ccccc2F)[C@@H]1CO	-3.3	i
C[C@@H]1CN([C@@H](C)CO)S(=O)(=O)c2ccc(C#Cc3ccncc3)cc2O[C@@H]1CN(C)C(=O)C1CC1	0.7	i
C[C@H]1CCCCO[C@@H](CN(C)C(=O)Nc2cccc3ccccc23)[C@@H](C)CN([C@@H](C)CO)C(=O)c2cc(NS(=O)(=O)c3cccs3)ccc2O1	2.2	i

4 structures already listed, arranged by length of the SMILES, ascending:
structure	MLL AF4-AF9 inh	FGF22 binding
CN1c2ccc(Br)cc2[C@@H]2[C@@H](CCN2S(=O)(=O)c2ccccc2F)[C@@H]1CO	-3.3	i
COc1ccccc1-c1cn(CC[C@H]2CC[C@@H](NC(=O)C3CCCCC3)[C@H](CO)O2)nn1	-1.5	i
C[C@@H]1CN([C@H](C)CO)C(=O)c2cc(-c3ccc(C#N)cc3)cnc2O[C@H]1CN(C)Cc1ccncc1	-2.3	i
COc1ccc(CN(C)C[C@H]2OCCCC[C@@H](C)Oc3ccc(NC(=O)Nc4ccc5c(c4)OCO5)cc3C(=O)N([C@@H](C)CO)C[C@@H]2C)cc1	28*	i

2 entries picked at random from those above, as already listed:
structure	MLL AF4-AF9 inh	FGF22 binding
C[C@H]1CCCCO[C@@H](CN(C)C(=O)Nc2cccc3ccccc23)[C@@H](C)CN([C@@H](C)CO)C(=O)c2cc(NS(=O)(=O)c3cccs3)ccc2O1	2.2	i
COc1ccccc1-c1cn(CC[C@H]2CC[C@@H](NC(=O)C3CCCCC3)[C@H](CO)O2)nn1	-1.5	i

(listing goes on)
structure	MLL AF4-AF9 inh	FGF22 binding
O=S(=O)(c1cc(C(F)(F)F)ccc1Cl)N1CCN(Cc2ccc(OCCO)cc2)CC1	3.5	i
CCOC(=O)c1cc2c(c(-c3cccc(Br)c3)n1)[C@H](CCO)N(C(=O)NC(C)C)C2	-20	i
COc1ccc(NC(=O)Nc2cccc3c2O[C@H](CN(C)CC2CCCCC2)[C@@H](C)CN([C@H](C)CO)C3=O)cc1	6.6	i
CO[C@H]1CN(C)C(=O)c2cc(NS(C)(=O)=O)ccc2OC[C@@H](C)N(Cc2ccccc2)C[C@@H]1C	-1.2	i
O=C(Nc1ccc(Cl)c(Cl)c1)N[C@@H]1CC[C@@H](CCNC(=O)c2ccc(F)cc2)O[C@@H]1CO	1.0	i
C[C@H]1CN([C@@H](C)CO)C(=O)Cc2cc(NC(=O)Nc3ccc(F)cc3)ccc2O[C@H]1CN(C)CC1CCCCC1	1.1	i
CN(C)CC(=O)N[C@H]1CC[C@H](CCn2cc(C3CC3)nn2)O[C@@H]1CO	-1.0	i
COc1ccc(NC(=O)N(C)C[C@H]2Oc3ccc(NS(=O)(=O)c4ccccc4)cc3C(=O)N([C@@H](C)CO)C[C@H]2C)cc1	-1.2	i
C[C@@H]1CN([C@@H](C)CO)C(=O)Cc2cc(NS(=O)(=O)c3ccc(Cl)cc3)ccc2O[C@@H]1CN(C)Cc1ccccc1	1.6	i
C[C@@H]1CN([C@@H](C)CO)S(=O)(=O)c2ccc(C#CCC3CCCC3)cc2O[C@H]1CN(C)Cc1cccc(C(=O)O)c1	5.4	i
CCC(=O)N1[C@@H]2c3ccc(-c4ccccc4OC)c(=O)n3C[C@@H]2[C@@H](CO)[C@@H]1C(=O)NCCCN(C)C	1.4	i
O=C(c1ccc(F)cc1)N1CCCCN2[C@@H](CO)[C@H](c3ccc(-c4ccccc4)cc3)[C@@H]2C1	5.2	i
CO[C@@H]1CN(C)C(=O)c2cc(NC(=O)C3CCCC3)ccc2OC[C@@H](C)N(C(=O)c2ccccc2)C[C@H]1C	0.6	i
C[C@@H]1CN([C@@H](C)CO)C(=O)c2cc(NS(=O)(=O)c3ccccc3)ccc2O[C@H]1CN(C)Cc1ccc(Cl)c(Cl)c1	4.1	i
CO[C@H]1CN(C)C(=O)c2cc(NC(=O)CC(F)(F)F)ccc2OC[C@@H](C)N(C(=O)C2CCCCC2)C[C@@H]1C	-31	i
CCC(=O)Nc1ccc2c(c1)C(=O)N(C)[C@H]1CC[C@@H](CC(=O)N[C@H](C)c3ccccc3)O[C@H]1CO2	-0.9	i
COc1ccc(CN(C)C[C@@H]2OCCCC[C@@H](C)Oc3ccc(NC(=O)c4ccncc4)cc3C(=O)N([C@H](C)CO)C[C@H]2C)cc1	0.0	i
N#Cc1cccc(-c2ccc3c(c2)[C@H]2[C@H](CCN2S(=O)(=O)c2ccc(F)cc2)[C@H](CO)N3)c1	-0.4	i
